mut p53 SMM = binders of human mutant p53. small molecule microarray binding, anti-GST fluorescence. 17,000 tested, 0.4% active. calls only. AID 624136;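 active = compounds whose four printed spots each glow above background more than chance allows, each with a p-value under 7%; compounds were printed on slides so no solution concentration is given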;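 note: about 2 pmol printed per array spot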
c-Myc SMM = c-Myc (human) binding; small molecule microarray, His-c-Myc binding, anti-His fluorescence; P01106; 17,000 tested, 1.5% active; calls only;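 active = spot fluorescence over background with P-value below 7% in all four replicate spots, showing protein binding; compounds were printed on slides so no solution concentration is given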;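 note: score is binary with 100 for all four spots passing and 0 otherwise; about 2 pmol printed per array spot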
Target sequence (P01106 whole entry, looked up): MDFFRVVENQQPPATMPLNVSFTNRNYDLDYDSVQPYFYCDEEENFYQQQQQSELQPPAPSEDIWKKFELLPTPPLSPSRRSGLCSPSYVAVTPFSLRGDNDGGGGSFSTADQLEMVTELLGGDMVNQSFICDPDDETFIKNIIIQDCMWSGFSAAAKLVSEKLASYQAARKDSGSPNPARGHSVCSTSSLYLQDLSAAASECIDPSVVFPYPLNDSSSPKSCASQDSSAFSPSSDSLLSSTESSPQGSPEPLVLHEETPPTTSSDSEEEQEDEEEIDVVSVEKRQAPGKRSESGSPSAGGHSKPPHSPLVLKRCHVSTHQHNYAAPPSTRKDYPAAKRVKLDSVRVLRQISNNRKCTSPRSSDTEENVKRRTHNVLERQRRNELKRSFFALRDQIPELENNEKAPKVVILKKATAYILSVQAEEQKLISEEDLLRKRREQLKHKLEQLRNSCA
STAT3 SMM = STAT3 (human) binding; P40763; Small molecule microarray, His-STAT3 binding, anti-His fluorescence; calls only; 17,000 tested, 0.2% active; AID 624138;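 active = compounds whose four printed spots each show fluorescence over background unusually high for their array block, chance value under 7%; compounds were printed on slides so no solution concentration is given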;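 note: about 2 pmol printed per array spot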
ID4 SMM = ID4 (human) binding; P47928; small molecule microarray, Flag-ID4 binding, fluorescence F/B; calls only; 31,000 tested, 1.2% active; AID 624137;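 active = spot signal over background at p below 0.07 in all four prints; compounds were printed on slides so no solution concentration is given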;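 note: a binder raises fluorescence above local background on the spot; about 2 pmol printed per array spot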
Target sequence (P47928 whole entry, looked up): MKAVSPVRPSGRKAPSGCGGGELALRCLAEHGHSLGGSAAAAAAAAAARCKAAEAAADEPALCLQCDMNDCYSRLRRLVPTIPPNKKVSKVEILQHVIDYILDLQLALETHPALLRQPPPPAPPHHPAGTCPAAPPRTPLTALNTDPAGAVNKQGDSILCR
Calls only; i = inactive; x = not tested or not shown; + = active, no number. The list is partial; the hit share may differ from the screen's.

SMILES	mut p53 SMM	c-Myc SMM	STAT3 SMM	ID4 SMM
C[C@@H]1CCCCO[C@@H](CN(C)C(=O)Nc2ccccc2)[C@@H](C)CN([C@@H](C)CO)C(=O)c2cc(NS(=O)(=O)c3ccccc3)ccc2O1	i	i	i	i
O=C(NCC(O)CO)[C@]1(Cc2ccccc2)N=C(c2ccc(OCCCO)cc2)O[C@@H]1c1ccccc1 (stereo partly drawn)	i	i	i	i
CC(C)NC(=O)[C@@]1(c2ccc([N+](=O)[O-])cc2)CC(=O)N(CC23CC4CC(CC(C4)C2)C3)[C@@H]1c1ccc(CO)cc1	i	i	i	x
CCOc1ccc(-c2nnc(SCC(=O)c3ccccc3N)n2C)cc1	i	i	i	i
C[C@@H]1CCCCO[C@H](CN(C)C)[C@H](C)CN([C@H](C)CO)C(=O)c2cc(NS(=O)(=O)c3cccs3)ccc2O1	i	i	i	i
Cc1noc(C)c1NC(=O)Nc1ccc2c(c1)CC(=O)N([C@H](C)CO)C[C@@H](C)[C@H](CN(C)C)O2	i	i	i	i
COc1ccc(CN(C)C[C@H]2Oc3c(NC(=O)Nc4ccc(C(F)(F)F)cc4)cccc3C(=O)N([C@H](C)CO)C[C@@H]2C)cc1	i	i	i	i
C[C@@H]1CN([C@H](C)CO)C(=O)c2cc(N(C)C)ccc2O[C@@H]1CN(C)Cc1ccccc1	i	i	i	i
O=C1O[C@H](c2ccccc2)[C@H](c2ccccc2)N2[C@H]1[C@@H](C(=O)N1CCN(c3ncccn3)CC1)[C@]1(C(=O)Nc3ccc(C#CCCO)cc31)[C@H]2c1ccccc1OCCO	i	i	i	i
NC(N)=NCCCC(N)C(=O)CC(Cc1ccccc1)C(=O)O (stereo not drawn)	i	i	i	i
O=C(NCc1ccco1)C1CC(=O)N(c2ccc(O)cc2)C1 (stereo not drawn)	i	i	i	i
C[C@H]1CN([C@@H](C)CO)C(=O)CCCn2cc(nn2)CO[C@H]1CN(C)S(=O)(=O)c1ccc(Cl)cc1	i	i	i	i
C[C@@H]1CCCCO[C@H](CN(C)C)[C@@H](C)CN([C@H](C)CO)C(=O)c2cc(N(C)C)ccc2O1	i	i	i	i
C[C@H](CO)N1C[C@H](C)[C@H](CN(C)S(=O)(=O)c2cn(C)cn2)Oc2ccc(NS(=O)(=O)c3cn(C)cn3)cc2CC1=O	i	i	i	i
O=c1n(-c2ccccc2)c(=O)n2n1CC(COc1ccccc1)=C([C@H](O)c1ccccc1)[C@@H]2CO	i	i	i	i
O=C(Cn1nc(C(F)(F)F)c2c1CCCCC2)Nc1ccc(S(=O)(=O)N2CCCC2)cc1	i	i	i	i
C[C@@H]1CCCCO[C@@H](CN(C)C)[C@H](C)CN([C@@H](C)CO)C(=O)c2cc(N(C)C)ccc2O1	i	i	i	i
C[C@@H]1O[C@@H](Oc2cc(O)c3c(=O)c(O[C@@H]4O[C@@H](C)[C@H](O[C@@H]5O[C@@H](C)[C@H](O)[C@@H](O)[C@H]5O)[C@@H](O)[C@H]4O)c(-c4ccc(O)cc4)oc3c2)[C@H](O)[C@H](O)[C@H]1O	i	i	i	i
COc1cc(CO)ccc1Oc1nc([N+](=O)[O-])nn1Cc1ccccc1F	i	i	i	i
NC(=O)c1ccc(NC(=O)C2CCCN(S(=O)(=O)c3ccc(Br)cc3)C2)cc1 (stereo not drawn)	i	i	i	i
O=C1CCC=CC1(O)C(=O)OCc1cccc(O)c1OC1OC(CO)C(O)C(O)C1O (stereo not drawn)	i	i	i	i
C[C@@H]1CN([C@@H](C)CO)C(=O)c2cc(NC(=O)CCN3CCOCC3)ccc2O[C@H]1CN(C)C	i	i	i	i
CS(=O)(=O)N(CC(=O)Nc1cccc2ccccc12)c1ccc(Cl)cc1	i	i	i	i
Cc1cc2ccccc2n2c(SCC(=O)NCc3ccco3)nnc12	i	i	i	i
C[C@@H]1CCCCO[C@@H](CN(C)C(=O)c2ccccc2)[C@H](C)CN([C@@H](C)CO)C(=O)c2cc(NC(=O)Nc3ccc4c(c3)OCO4)ccc2O1	i	i	i	i

Carrying on.
SMILES	mut p53 SMM	c-Myc SMM	STAT3 SMM	ID4 SMM
C[C@@H]1CN([C@@H](C)CO)C(=O)c2cccc(NS(C)(=O)=O)c2O[C@@H]1CN(C)Cc1ccncc1	i	i	i	i
C[C@@H]1CCCCO[C@H](CN(C)C(=O)CCC(F)(F)F)[C@@H](C)CN([C@@H](C)CO)C(=O)c2cc(NC(=O)CCC(F)(F)F)ccc2O1	i	i	i	i
CC(C)NC(=O)N(C)C[C@H]1Oc2ccc(NC(=O)CCN3CCOCC3)cc2C(=O)N([C@H](C)CO)C[C@H]1C	i	i	i	i
Cc1cccc(NC(=O)c2cc(NC(=O)C3CCCCC3C(=O)O)ccc2N2CCCCC2)c1 (stereo not drawn)	i	i	i	i
C[C@H](CO)N1C[C@H](C)[C@H](CN(C)C(=O)Nc2ccc3c(c2)OCO3)Oc2ccc(NC(=O)CCN3CCOCC3)cc2CC1=O	i	i	i	i
C[C@H]1CN([C@@H](C)CO)C(=O)Cc2cc(NC(=O)Nc3cccc4ccccc34)ccc2O[C@H]1CN(C)C(=O)Nc1cccc2ccccc12	i	i	i	i
Cc1noc(C)c1NC(=O)N(C)C[C@@H]1OCCCC[C@@H](C)Oc2ccc(NS(C)(=O)=O)cc2C(=O)N([C@H](C)CO)C[C@H]1C	i	i	i	i
C[C@@H]1CN([C@@H](C)CO)C(=O)Cc2cc(NC(=O)CCCN(C)C)ccc2O[C@@H]1CN(C)C	i	i	i	i
Cc1noc(C)c1S(=O)(=O)N(C)C[C@H]1Oc2ccc(NS(=O)(=O)c3cccs3)cc2CC(=O)N([C@H](C)CO)C[C@@H]1C	i	i	i	i
CNC[C@@H]1Oc2c(NS(=O)(=O)c3cccs3)cccc2C(=O)N([C@H](C)CO)C[C@@H]1C	i	i	i	i
COc1ccc(C(=O)CSc2nc3nc(C)cc(C)n3n2)cc1OC	i	i	i	i
C=CCNC(=O)[C@@H]1[C@H]2C(=O)O[C@H](c3ccccc3)[C@H](c3ccccc3)N2[C@H](c2ccccc2OCCO)[C@@]12C(=O)N(C(=O)OCCOC)c1ccc(C#Cc3ccc(OC)cc3)cc12	i	i	i	i
CC(C)NC(=O)Nc1ccc2c(c1)C(=O)N([C@@H](C)CO)C[C@H](C)[C@@H](CN(C)C(=O)Nc1ccc(F)cc1)OCCCC[C@H](C)O2	i	i	i	x
CNC[C@@H]1OCCCC[C@@H](C)Oc2ccc(NC(=O)Nc3ccccc3)cc2C(=O)N([C@H](C)CO)C[C@@H]1C	i	i	i	i
O=C(O)CN(c1ccccc1)S(=O)(=O)c1ccc(Cl)cc1	i	i	i	i
C[C@@H]1CN([C@H](C)CO)C(=O)c2cccc(NS(C)(=O)=O)c2O[C@@H]1CN(C)Cc1ccccc1	i	i	i	i
COc1ccc(S(=O)(=O)Nc2ccc3c(c2)C(=O)N([C@@H](C)CO)C[C@H](C)[C@H](CN(C)S(=O)(=O)c2ccc(OC)cc2)O3)cc1	i	i	i	i
C[C@@H]1CN([C@@H](C)CO)C(=O)c2cccc(NC(=O)Nc3ccc(C(F)(F)F)cc3)c2O[C@@H]1CN(C)C(=O)NC1CCCCC1	i	i	i	i
COc1ccc(NC(=O)Nc2ccc3c(c2)C(=O)N([C@H](C)CO)C[C@@H](C)[C@H](CN(C)S(=O)(=O)c2ccc(OC)cc2)O3)cc1	i	i	i	i
CC(C)NC(=O)N(C)C[C@H]1OCc2cn(nn2)CCCC(=O)N([C@@H](C)CO)C[C@@H]1C	i	i	i	i
Cc1noc(C)c1S(=O)(=O)Nc1ccc2c(c1)C(=O)N([C@@H](C)CO)C[C@@H](C)[C@@H](CN(C)C)OCCCC[C@@H](C)O2	i	i	i	i
CNC[C@@H]1OCCCC[C@@H](C)Oc2ccc(N(C)C)cc2C(=O)N([C@H](C)CO)C[C@H]1C	i	i	i	i
CCCCC/C=C\C/C=C\CCCCCCCCCC(=O)O	i	i	i	i
O=C(Cn1nnc2ccccc21)OCc1ccccc1Cl	i	i	i	i
O=C(CS(=O)(=O)c1ccc2ccccc2c1)c1cc2ccccc2oc1=O	i	+	i	i

Other compounds follow:
SMILES	mut p53 SMM	c-Myc SMM	STAT3 SMM	ID4 SMM
C[C@@H]1CN([C@@H](C)CO)C(=O)c2cccc(NS(=O)(=O)c3cn(C)cn3)c2O[C@H]1CN(C)Cc1ccc(Oc2ccccc2)cc1	i	i	i	i
C[C@H](CO)N1C[C@H](C)[C@H](CN(C)S(=O)(=O)c2ccc(Cl)cc2)Oc2ccc(NS(=O)(=O)c3ccc(F)cc3)cc2C1=O	i	i	i	x
C[C@H]1CN([C@@H](C)CO)C(=O)c2cc(NS(=O)(=O)c3ccc(Cl)cc3)ccc2O[C@H]1CN(C)C(=O)Nc1ccc2c(c1)OCO2	i	i	i	i
C[C@@H]1CN([C@H](C)CO)C(=O)Cc2cc(NC(=O)Cn3cnnn3)ccc2O[C@@H]1CN(C)C(=O)Nc1ccc(F)cc1	i	i	i	i
Cc1cccc(-n2c(N)cc(=O)nc2SCC(=O)N(c2ccccc2)c2ccccc2)c1	i	i	i	i
C[C@@H]1CN([C@H](C)CO)C(=O)c2cccc(NC(=O)c3ccc(-c4nccs4)cc3)c2O[C@H]1CN(C)CC1CCCCC1	i	i	i	x
Cc1ccc(S(=O)(=O)Nc2ccc3c(c2)CC(=O)N([C@@H](C)CO)C[C@@H](C)[C@H](CN(C)Cc2ccc(C(=O)O)cc2)O3)cc1	i	i	i	x
C[C@@H]1CN([C@H](C)CO)C(=O)Cc2cc(NC(=O)NC3CCCCC3)ccc2O[C@@H]1CN(C)C(=O)Nc1ccc2c(c1)OCO2	i	i	i	i
CC(C)NC(=O)N(C)C[C@@H]1Oc2ccc(NC(=O)CCN3CCOCC3)cc2C(=O)N([C@@H](C)CO)C[C@H]1C	i	i	i	i
Cc1ccc(S(=O)(=O)Nc2ccc3c(c2)CC(=O)N([C@H](C)CO)C[C@@H](C)[C@H](CN(C)S(=O)(=O)c2ccc(Cl)cc2)O3)cc1	i	i	i	x
COc1ccc(O)c(C(c2c[nH]c3ccccc23)c2c[nH]c3ccccc23)c1	i	i	i	i
C[C@H]1CCCCO[C@H](CN(C)Cc2ccncc2)[C@@H](C)CN([C@@H](C)CO)C(=O)c2cc(NC(=O)c3ccncc3)ccc2O1	i	i	i	i
Cn1c(SCC(=O)Nc2cc(Cl)cc(Cl)c2)nnc1-c1ccc(Cl)cc1Cl	i	i	i	i
COc1c(O)cc2oc(-c3ccc(O)c(O)c3)cc(=O)c2c1O	i	i	i	x
COc1ccc(CN(C)C[C@@H]2Oc3ccc(NC(=O)c4ccncc4)cc3C(=O)N([C@@H](C)CO)C[C@H]2C)cc1	i	i	i	i
C[C@]12CCCC(=O)N1CCc1c2[nH]c2ccccc12	i	i	i	i
COc1ccc(NC(=O)N(C)C[C@H]2Oc3ccc(NS(=O)(=O)c4ccc(C)cc4)cc3C(=O)N([C@@H](C)CO)C[C@H]2C)cc1	i	i	i	x
C[C@H](CO)N1C[C@H](C)[C@@H](CN(C)S(=O)(=O)c2ccc(F)cc2)OCCCC[C@H](C)Oc2ccc(NC(=O)c3ccncc3)cc2C1=O	i	i	i	i
COc1ccc(C(=O)CSc2nc3ccccc3c(=O)[nH]2)cc1OC	i	i	i	i
C[C@H](CO)N1C[C@H](C)[C@H](CN(C)C)Oc2ccc(NC(=O)Cc3ccccc3)cc2CC1=O	i	i	i	i
CC(C)NC(=O)Nc1ccc2c(c1)C(=O)N([C@@H](C)CO)C[C@@H](C)[C@H](CN(C)C)OCCCC[C@@H](C)O2	i	i	i	i
C[C@@H]1CN([C@H](C)CO)C(=O)c2cccc(NC(=O)C3CCOCC3)c2O[C@@H]1CN(C)Cc1ccc(C(F)(F)F)cc1	i	i	i	i
C[C@H](CO)N1C[C@H](C)[C@@H](CN(C)C(=O)Nc2ccc(C(F)(F)F)cc2)Oc2ccc(NS(C)(=O)=O)cc2CC1=O	i	i	i	i
C[C@@H]1CN([C@H](C)CO)C(=O)c2cccc(NC(=O)C3CCOCC3)c2O[C@H]1CN(C)C	i	i	i	i
C[C@@H]1CN([C@@H](C)CO)C(=O)c2cc(NS(=O)(=O)c3cn(C)cn3)ccc2O[C@H]1CN(C)C	i	i	i	i
COc1ccc(-c2cn(C[C@@H](Cc3ccccc3)NC(=O)Nc3ccccc3)nn2)cc1OC	i	i	i	i

Full records, looked up by structure. Order of values: mut p53 SMM, c-Myc SMM, STAT3 SMM, ID4 SMM
`C=CCNC(=O)[C@@H]1[C@H]2C(=O)O[C@H](c3ccccc3)[C@H](c3ccccc3)N2[C@H](c2ccccc2OCCO)[C@@]12C(=O)N(C(=O)OCCOC)c1ccc(C#Cc3ccc(OC)cc3)cc12` as listed: i, i, i, i
`Cc1cccc(-n2c(N)cc(=O)nc2SCC(=O)N(c2ccccc2)c2ccccc2)c1` as listed: i, i, i, i
`O=C(CS(=O)(=O)c1ccc2ccccc2c1)c1cc2ccccc2oc1=O` as listed: i, +, i, i
`C[C@@H]1CN([C@H](C)CO)C(=O)c2cccc(NC(=O)C3CCOCC3)c2O[C@@H]1CN(C)Cc1ccc(C(F)(F)F)cc1` as listed: i, i, i, i
`C[C@@H]1CCCCO[C@H](CN(C)C)[C@@H](C)CN([C@H](C)CO)C(=O)c2cc(N(C)C)ccc2O1` as listed: i, i, i, i

Screening results: PubChem BioAssay, Broad Institute
